Source: PubChem BioAssay
CtBP-E1A blk = CtBP/E1A binding inhibition | activity change, % (test concentration not listed) | 340,000 tested, 0.49% active | AlphaScreen GST-E1A/His-CtBP binding, 1536-well; hits give low values; control for the full effect not named in the record; in the data active means activity change below about -65%; inconclusive means about -30% to -65%; inactive means above about -30%; note: % is set by controls: 0 for no effect and ±100 for the full control effect; compound concentration not given in the record
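Homogeneous bead-based format: GST-tagged E1A captured on glutathione donor beads, His-tagged CtBP on nickel acceptor beads; compounds precede bead addition by 2 h at 37 °C.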
ClpP mod = qHTS Assay for Activators of ClpP. purified B. subtilis ClpP, FRET peptide cleavage, 20 min. AID 651965, 2013. ATP-dependent Clp protease proteolytic subunit (Bacillus subtilis (strain 168)), P80244. 340,000 tested, 1.9% active. Potency, µM (titrated, usually from 57.5 µM), without a hit: top-dose activity change, negative = active; active = well fitted falling curve with a large enough effect; inconclusive = small, poorly fitted or top-dose-only effect; inactive = no such curve, though single readings can be large or run the other way; note: potency is the fitted concentration of half-maximal effect; the source files actives as falling curves though it sought activators and does not explain the sign; nearly all actives have a fitted effect of over 65% in size; many hits overshoot -100%
Target sequence (P80244 whole entry, looked up): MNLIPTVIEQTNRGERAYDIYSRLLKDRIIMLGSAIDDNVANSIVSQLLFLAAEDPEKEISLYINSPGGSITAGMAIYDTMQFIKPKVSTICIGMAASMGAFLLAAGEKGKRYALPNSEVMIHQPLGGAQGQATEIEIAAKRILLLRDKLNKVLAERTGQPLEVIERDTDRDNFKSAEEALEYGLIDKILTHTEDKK
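FRET quenching reversal measured ClpP activation: 10 microg/mL B. subtilis ClpP at pH 8 with the FRET-FV decapeptide, read at 430 nm after 320 nm excitation. The 20-min minus 0-min signal was scaled between DMSO/no-enzyme wells and ADEP (5.8 microM final).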
Sfp PPTase inh = Sfp phosphopantetheinyl transferase inhibition; Q9F4F7; Biochemical Sfp PPTase activity, qHTS; Potency, µM, without a hit: max response, negative = inhibition, hits mostly inhibitors; 310,000 tested, 3.5% active; AID 1490; active = well fitted inhibition curve with a large enough effect; inconclusive = small, poorly fitted or top-dose-only effect, or another doubt; inactive = no such curve, though single readings can be large or run the other way;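 note: the enzyme is Sfp with the accession as filed and its product quenches rhodamine fluorescence; potency is the fitted concentration of half-maximal effect; 0% = enzyme reaction without inhibitor and -100% = no enzyme wells; top concentration of the series not given in the record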
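After 15 min at room temperature with compound, 15 nM Sfp received 5 uM rhodamine-CoA plus 12.5 uM BHQ-2-ybbR (50 mM Hepes pH 7.6, 10 mM MgCl2). Rate came from the fluorescence difference over 30 min, ex 525/em 598 nm.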
Menin-MLL FL inh = menin-MLL binding inhibition, fluorescein peptide; FP activity change, % at 61.4 µM; Fluorescence polarization, fluorescein-MLL peptide displacement from menin; AID 1766; 290,000 tested, under 10 active; inconclusive = falling polarisation curve, or a change in total fluorescence; inactive = total fluorescence flat and polarisation flat or rising; no compound was filed as active; the % refers to the polarisation; negative = inhibition;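 note: % of control where 0% means no effect; inhibitors lower the polarisation; unlabelled MLL peptide was the positive control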
TRPV1 PAM = enhances activation of the human vanilloid receptor TRPV1. Q8NER1. TRPV1-expressing cells, Fluo-8 calcium influx, capsaicin EC20 potentiation; host cell line not named in the record; control for the full effect not named in the record. potentiation, % at 8.33 µM. 320,000 tested, 0.02% active. AID 540277; active means potentiation above 80%; inconclusive means 30% to 80%; inactive means below 30%; note: 0% is about no effect
Target sequence (Q8NER1 whole entry, looked up): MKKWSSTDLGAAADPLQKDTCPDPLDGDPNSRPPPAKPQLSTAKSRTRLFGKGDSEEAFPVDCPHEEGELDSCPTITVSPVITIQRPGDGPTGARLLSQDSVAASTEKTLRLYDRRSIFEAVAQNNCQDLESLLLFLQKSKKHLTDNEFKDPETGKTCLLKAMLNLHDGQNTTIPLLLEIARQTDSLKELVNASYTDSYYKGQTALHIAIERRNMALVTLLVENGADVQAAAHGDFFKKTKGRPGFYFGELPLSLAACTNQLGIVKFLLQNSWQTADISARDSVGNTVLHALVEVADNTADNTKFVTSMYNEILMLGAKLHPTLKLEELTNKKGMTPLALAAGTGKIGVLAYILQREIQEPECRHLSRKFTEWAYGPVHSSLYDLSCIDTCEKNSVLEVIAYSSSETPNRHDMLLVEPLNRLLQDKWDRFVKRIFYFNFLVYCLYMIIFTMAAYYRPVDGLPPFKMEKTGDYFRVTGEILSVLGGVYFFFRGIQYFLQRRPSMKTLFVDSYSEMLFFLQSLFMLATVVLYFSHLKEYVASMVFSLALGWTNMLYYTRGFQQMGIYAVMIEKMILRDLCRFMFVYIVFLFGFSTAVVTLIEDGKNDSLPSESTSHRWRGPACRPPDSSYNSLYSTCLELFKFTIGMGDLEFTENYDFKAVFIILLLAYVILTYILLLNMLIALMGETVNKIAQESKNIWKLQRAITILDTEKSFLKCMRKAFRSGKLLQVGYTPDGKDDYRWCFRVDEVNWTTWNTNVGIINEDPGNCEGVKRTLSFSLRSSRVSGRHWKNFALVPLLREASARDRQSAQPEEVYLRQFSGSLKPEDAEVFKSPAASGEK
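Fluo-8 calcium influx in TRPV1-expressing cells, kinetic read (ex 480/em 520 nm). Compound added and read 3 min for agonist activity, followed by capsaicin at EC20 final and 2 min further read for enhancement.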
gsp antag = antagonists of gsp mutant (McCune-Albright syndrome) | gsp-mutant cells, cAMP HTRF, 30 min; control for the full effect not named in the record | Potency, µM (doses to about 76.9 µM), inactives show top-dose activity change, negative = inhibition, actives largely listed as inhibitors | 340,000 tested, 0.4% active; active = falling curve of any shape with a large fitted effect; inconclusive = falling curve, mostly with a smaller effect; inactive = flat or rising curve; cell line not stated here;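 note: intracellular cAMP measured with PDE inhibitor Ro 20-1724 present during compound exposure; potency is the fitted concentration of half-maximal effect; % is set by controls: 0 for no effect and ±100 for the full control effect; nearly all actives have a fitted effect of over 65% in size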
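Cells, 2000/well, grown 16–24 h in DMEM 10% FBS with 0.5 mg/ml G418, then compounds plus […] (300 uM addition stock), 30 min at 37C. cAMP read by HTRF (cAMP-d2 and anti-cAMP antibody-K in lysis buffer) after 30 min RT.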
gsp ag = agonists of gsp mutant (McCune-Albright syndrome). gsp mutant cells, cAMP HTRF, 30 min; control for the full effect not named in the record. Potency, µM (highest dose often 76.9 µM), without a hit: at the top dose activation (cAMP increase), hits mostly activators. 340,000 tested, 0.13% active. AID 624287; active = well fitted activation curve with a large enough effect; inconclusive = small, poorly fitted or top-dose-only effect, or another doubt; inactive = no such curve, though single readings can be large or run the other way; cell line not stated here;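 note: phosphodiesterase inhibitor Ro 20-1724 added with compounds to block cAMP breakdown; potency is the fitted concentration of half-maximal effect; nearly all actives have a fitted effect of over 60% in size; about a fifth of the inactives were tested at one dose only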
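Cells stably selected in G418 were plated at 2000/well, grown 16-24 hr, then given compounds in DMSO with the PDE inhibitor […] (300 uM solution added) for 30 min at 37C; cAMP was read by HTRF.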
Numbers without * were called inactive; ? = inconclusive; · = no result given; & = joins results of further samples; [ ] = remark or other dose.

SMILES | CtBP-E1A blk | ClpP mod | Sfp PPTase inh | Menin-MLL FL inh | TRPV1 PAM | gsp antag | gsp ag
O=C(NCc1ccccc1)c1ccc(F)c(F)c1 | -1.2 | · | 4.5% | 0.9 | -1.8 | 2.1% | 7.3%[15.4 µM]
O=C(CN1C(=O)c2ccccc2C1=O)OCC(=O)c1ccccc1 | -1.9 | · | · | · | 22.6 | -0.7% | -20.7%[15.4 µM]
COc1ccccc1OCC(=O)Nc1ccccc1C(=O)NCc1ccco1 | -3.2 | -4.2% | 27.0% | 0.8 | 10.2 | -3.0% | 5.2%
CC(=C/c1ccccc1)/C=C1/SC(N2CCOCC2)=NC1=O | 0.0 | -13.5% | 6.8% | 1.4 | -4.1 | -13.1% | -5.3%[15.4 µM]
CC1CCCCC1NC(=O)c1ccc(S(=O)(=O)N2CCN(C)CC2)cc1 (stereo not given) | 9.7 | 0.8% | 6.5% | -2.1 | -2.8 | 8.6% | 4.1%
CSC1=NCCN1C(=O)c1cccc(C(F)(F)F)c1 | 3.6 | -1.2% | 1.6% | 2.4 | 1.9 | 16.6% | -0.8%
CCNC(=O)C(=O)NCCc1ccc(Cl)cc1 | -2.5 | -3.0% | -11.3% | 5.2 | 8.4 | 2.4% | 11.1%
CN(Cc1ccccc1)S(=O)(=O)c1nnc(NC(=O)c2ccccc2F)s1 | 5.4 | -6.5% | 16.4% | · | 15.3 | -25.2% | 13.9%
COc1cccc(CNC(=O)CCCn2nc(C)n3c(cc4sccc43)c2=O)c1 | 0.4 | -2.0%&-3.5% | 11.0% | · | -22.4 | -14.6% | 1.4%
O=C(CN1C(=O)NC2(CCc3ccccc32)C1=O)Nc1cc(C(F)(F)F)ccc1N1CCOCC1 (stereo not given) | 1.2 | 0.4% | 10.6% | 2.3 | -1.1 | 3.2% | -43.0%[inhibitor]
COc1ccc(NC(=O)c2scc(S(=O)(=O)C(C)C)c2N)cc1 | -0.3 | · | 10.7% | 1.1 | -27.0 | 1.7% | 23.8%
CN(CCCNC(=O)CCc1cn(C)c2ccccc12)C1CCCCC1 | 2.4 | · | 10.7% | 0.2 | -6.8 | 1.9% | 3.1%
CCOC(=O)COc1ccc2c(c1)c(C(=O)OCC)c(C)n2CC | 10.3 | -29.4% | 10.4% | 2.3 | -17.9 | -19.6% | 6.2%
CN(C)C(=O)CCCCCCCCC(=O)N(C)C | -3.6 | · | 19.2% | -0.8 | -8.7 | -15.5% | -10.0%[15.4 µM]
CC(C)(C)OC(=O)N1CCC2(CC1)C(C#N)=C(N)OC1=C2C(=O)CCC1 | 15.5 | -1.0% | 11.8% | 0.6 | 9.8 | -11.6% | ?
O=C(Nc1cnccn1)c1cccnc1 | -2.7 | -1.8% | 19.2% | 1.3 | -4.7 | 4.9% | -27.0%
CCOC(=O)C=C(OC(=O)c1ccc(OC)cc1)c1ccccc1 | 5.9 | -1.8% | · | · | · | -15.5% | -5.0%[15.4 µM]
O=C1Nc2ccccc2C(O)(C(=O)NCc2ccc3c(c2)OCO3)N1c1ccc(Cl)c(Cl)c1 (stereo not given) | 4.9 | -0.5% | 1.6% | -0.6 | -9.4 | 15.8% | -4.1%
COc1ccc(CCNC(=O)/C=C/c2ccc3ccccc3n2)cc1OC | 0.0 | · | 18.8% | -3.6 | 11.2 | ? | 15.7%[15.4 µM]
O=C(CCCOc1ccccc1)N1CCN(C(=O)c2ccco2)CC1 | 1.5 | -0.8% | 14.7% | 5.0 | -12.0 | 4.4% | 2.2%
C/C(N)=C(/C#N)C(=O)CN1CCCCC1 | 0.5 | -5.8% | 9.6% | -0.5 | -1.0 | 11.3% | 1.0%
Cc1ccc(CS(=O)(=O)CCC(=O)NC2CC2)cc1 | 5.4 | 0.5% | 24.4% | 1.3 | 11.0 | 10.3% | -17.3%
CCc1ccc(-c2nc(CS(=O)CC(=O)NCc3ccccc3)c(C)o2)cc1 (stereo not given) | 2.1 | -12.9% | -4.6% | · | -8.1 | 13.6% | ?
COc1ccc(CNC(=O)C2CCCN(Cc3nc(-c4cccc(C)c4)oc3C)C2)cc1 (stereo not given) | -10.2 | -1.2% | 56.2µM* | 4.0 | -8.2 | -0.9% | -28.5%
Nc1ncccc1C(=O)OCC(=O)NC1CCCCCC1 | -0.8 | 4.3% | · | · | -12.5 | -5.5% | -31.8%[inhibitor]
CCc1cc(C(=O)OC)c(NC(=O)CCCC(=O)O)s1 | 3.4 | -5.5% | -5.6% | 3.2 | · | -18.6% | -3.7%
O=C1Nc2ccccc2C12OCCO2 | -1.1 | -1.3% | 9.2% | 0.9 | 0.0 | 3.9% | -11.3%
C/C(=N\O)c1ccc(N2C(=O)C3CC=C(Cl)CC3C2=O)cc1 (stereo not given) | -3.9 | -3.6% | 24.2% | -1.0 | 1.9 | 13.5% | -16.6%
CC1(C)CC(=O)C(C(C2=C(O)CC(C)(C)CC2=O)c2cccs2)C(=O)C1 (stereo not given) | 7.6 | 1.1% | 22.4µM* | 1.4 | 9.8 | -0.3% | -19.0%
Cc1cnc(C(=O)OCC(=O)Nc2sc3c(c2C(N)=O)CCCC3)cn1 | -5.7 | -1.1% | · | · | -1.7 | -0.9% | -39.8%[inhibitor]
O=C(CNCc1ccco1)Nc1ccc(N2CCCCCC2)cc1 | -25.2 | 1.0% | -22.1% | -3.4 | -5.7 | -11.5% | -70.9%[inhibitor]
CCCCn1c(-c2ccc(Cl)cc2)nc2c(=O)n(C)c(=O)[nH]c21 | 8.9 | 11.2µM* | 0.4% | -0.9 | · | 7.1% | 8.7%
CC(=O)N(C(C)=O)c1nc(-c2ccccc2)cn1/N=C/c1cccc([N+](=O)[O-])c1 | -1.6 | -1.6% | 18.5% | -2.5 | -24.7 | -7.0% | 7.1%[15.4 µM]
CC(C)c1ccc(/C=C/c2ccc(=O)n(C)n2)cc1 | 0.0 | · | -0.5% | 4.2 | -6.2 | · | 9.8%[15.4 µM]
CCCCOc1ccc(NC(=O)Nc2nnc(C)s2)cc1 | · | 0.1% | 13.1% | 6.5 | 28.3 | -11.4% | -2.7%
O=C(Cn1nc(-c2cccc([N+](=O)[O-])c2)c2ccccc2c1=O)Nc1cccnc1 | 0.0 | -0.3% | 17.4% | 3.0 | 5.2 | -6.3% | 21.0%
CNC(=O)c1cnn(-c2nc(-c3ccc(OC)cc3)cs2)c1C(F)(F)F | · | -17.5% | 0.5% | -5.6 | -4.1 | -4.6% | -5.7%
COc1ccc(S(=O)(=O)N2CCC(O)(c3ccc(Cl)cc3)CC2)cc1 | 0.0 | 0.2% | 14.4% | 3.7 | -11.3 | ? | -10.7%
CC(C)n1cc(/C=N/Nc2ccc(Cl)c(C(=O)O)c2)c2ccccc21 | · | · | -8.5% | 4.8 | 6.5 | · | ·
Cc1ccccc1C(=O)OC1OC(=O)C(Cl)=C1N1CCOCC1 (stereo not given) | -9.7 | 3.7% | -9.6% | 4.3 | -12.9 | -13.9% | -15.6%[15.4 µM]
COc1cccc(Nc2nnc(SCC(=O)N3CC(=O)Nc4ccccc43)s2)c1 | -27.1 | -1.2% | 0.2% | 0.5 | 8.9 | -22.0% | 19.1%
Cc1ccc2[nH]c(CNC(=O)c3ccccc3F)cc2c1 | 1.5 | -0.3% | 9.7% | -4.1 | -16.3 | -8.9% | 3.8%[15.4 µM]
COc1ccc(C)cc1NC(=O)c1cc2ccccc2cc1OCC(=O)NCc1ccco1 | -1.4 | ? | ? | -3.0 | 14.8 | -15.5% | -49.1%[inhibitor]
Cc1cc(=O)oc2cc(NC(=O)C3CCCC3)ccc12 | 2.7 | · | 24.1% | 0.9 | 3.9 | 5.1% | 19.6%
CCNc1nc(-c2cc3ccccc3o2)cs1 | -6.8 | · | -14.8% | 2.7 | -7.8 | -2.3% | -4.6%[15.4 µM]
COc1ccc(-c2noc(-c3ccccc3C(=O)Nc3cccnc3)n2)cc1OC | -8.6 | -5.4% | 13.5% | -0.3 | -14.8 | 8.1% | -37.5%[inhibitor]
COc1ccc(CNC(=O)CCCn2nc(C)c([N+](=O)[O-])c2C)cc1OC | 5.6 | · | 8.7% | 0.8 | -11.0 | 7.2% | 14.7%[15.4 µM]
COCCCNC(=S)N1CCN(Cc2ccc3c(c2)OCO3)CC1 | 1.8 | 0.3% | -11.5% | -3.7 | -5.3 | 14.2% | 19.5%
COCC(=O)N/N=C(\C)CC(=O)Nc1ccccc1C(N)=O | 0.0 | -7.4% | ? | 0.4 | 0.0 | 12.9% | -14.7%
CCOC(=O)c1nnn(-c2ccccc2)c1C | -21.0 | 0.1% | 19.8% | -1.1 | -3.6 | 0.0% | -25.8%

Later entries
SMILES | CtBP-E1A blk | ClpP mod | Sfp PPTase inh | Menin-MLL FL inh | TRPV1 PAM | gsp antag | gsp ag
CCN(CC)S(=O)(=O)c1ccc(C)c(NC(=O)CNc2cccc(S(=O)(=O)N3CCOCC3)c2)c1 | 0.7 | · | · | · | 8.4 | -8.1% | 1.3%[15.4 µM]
CCS(=O)(=O)N1CCN(S(=O)(=O)c2ccccc2[N+](=O)[O-])CC1 | 7.3 | · | 7.2% | 3.8 | 7.1 | 4.2% | -22.6%
Cn1cccc1Cc1nnc(SCC(=O)N2CCc3ccccc32)n1CCc1ccccc1 | -10.8 | 2.5% | -8.4% | 2.4 | 4.9 | -22.9% | 12.2%
CCn1c(SCC(=O)C(C)(C)C)nnc1-c1ccccn1 | -1.4 | -2.3% | -1.1% | -1.4 | 5.9 | 3.1% | 16.5%
COc1ccc(NS(=O)(=O)c2ccc(O)c(NC(=O)c3ccc(S(=O)(=O)N4CCCCCC4)cc3)c2)cc1 | -3.9 | -1.8% | -28.1% | 6.4 | -8.3 | ? | -2.1%
Cc1nc2cc(NC(=O)NC(C)(C)C)ccc2n1C | · | -2.2% | -2.5% | 0.8 | 11.5 | -10.5% | -13.0%
O=C(COC(=O)c1ccc(O)cc1O)c1ccc(Cl)cc1 | 3.0 | · | · | · | -10.4 | 0.7% | 37.5%[15.4 µM]
C=CCN(CC=C)CCCOc1ccc(Br)cc1Cl | 5.6 | · | 18.1% | 1.0 | -6.9 | 11.9% | -4.9%[15.4 µM]
